Assay outcomes: PubChem BioAssay, several laboratories
CBX7 inh: CBX7 chromodomain binding inhibitors, primary screen, biochemical, AlphaScreen. Chromobox protein homolog 7 (Homo sapiens), O95931. AlphaScreen His6-CBX7 / biotin-H3K27me3 peptide binding; active compounds read low. normalised signal (fraction of DMSO) (no concentration beside the values). 66,000 compounds, 1.1% hits; in the data active = normalised signal below about 0.5;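 also: 100 nL library stock added to about 20 µL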
Target sequence (O95931 whole entry, looked up): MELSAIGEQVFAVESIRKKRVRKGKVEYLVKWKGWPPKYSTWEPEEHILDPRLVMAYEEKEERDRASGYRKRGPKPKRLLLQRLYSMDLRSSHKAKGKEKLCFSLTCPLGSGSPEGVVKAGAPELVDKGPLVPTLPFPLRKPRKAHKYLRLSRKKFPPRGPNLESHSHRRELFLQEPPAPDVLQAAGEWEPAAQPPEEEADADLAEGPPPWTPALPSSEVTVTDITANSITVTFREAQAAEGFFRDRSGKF
CBX7 inh z-score: second read-out of CBX7 inh, no call of its own (marks repeat the call); z-score; measured here: z-score of CBX7 signal; some inactives read as strong as hits; reference of the scale not given here;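 same signal on another scale; lower means less binding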
The depositor's hits bear a star; & = joins results of further samples. An excerpt; the hit share may differ from the screen's.

#	Molecule	CBX7 inh	CBX7 inh z-score
1	COc1ccc(NC(=O)Cc2ccc(NC3=NC4CS(=O)(=O)CC4S3)cc2)c(OC)c1 (configuration not stated)	1.1	1.3
2	c1ccc(-c2nnc(Sc3nc4ccccc4o3)c3ccccc23)cc1	0.96&0.75	-0.74&-5.6
3	Cc1nc2cc(S(=O)(=O)N3CCC(C(=O)O)CC3)ccc2n1C1CCCC1	1	0.82
4	CCCCc1ccc(NC(=O)CSc2nccn2-c2ccc(F)cc2)cc1	0.83	-1.3
5	CCOC(=O)N1CCC(Nc2c(Nc3ccc(OC)cc3)c(=O)c2=O)CC1	1	0.76
6	CC(=O)N1CCc2cc(S(=O)(=O)NCCC(=O)NCc3ccccc3)ccc21	1	-0.05
7	O=C(CN1C(=O)COc2ccc(S(=O)(=O)N3CCCCCC3)cc21)NCCCc1ccccc1	1	1.3
8	COc1ccc(-c2nc(SCC(=O)Nc3ccccc3)c(-c3ccc(C)cc3)[nH]2)cc1OC	0.99	-0.34
9	COCCNC(=O)c1cc(Nc2ccc(C(C)C)cc2)nc2ccccc12	1.1	0.13
10	Cc1ccc2nc(-c3cccs3)c(NC(=O)c3ccc(Cl)cc3)n2c1	0.94	-1.6
11	O=C(NCc1ccc2c(c1)OCO2)c1ccc2c(c1)N(Cc1ccc(Cl)cc1)C(=O)CS2	1	0.41
12	CCCOc1ccc(C2C(=O)N(C3CCCCC3)CC(=O)N2C2CCCCCCC2)cc1OC (configuration not stated)	0.88	-0.12
13	C=CCN1C(=O)CSc2ccc(C(=O)NC(C)c3ccccc3)cc21 (configuration not stated)	1	1.2
14	Cc1ccc(Nc2c(-c3cccs3)nc3cccc(C)n23)cc1	0.81	-5.1
15	COc1ccccc1NC(=O)C(=O)NCCc1c[nH]c2ccccc12	1.1	1
16	Clc1ccc(-c2nc(-c3cccs3)no2)cc1	1.1	5.8
17	CCSc1nnc(Cc2cc(=O)[nH]c(=O)[nH]2)n1-c1cc(C)ccc1C	1	0.15
18	CCCCN(C)C(=O)c1ccc2c(c1)N(Cc1cccc(Cl)c1)C(=O)c1ccccc1S2(=O)=O	0.81	-1.2
19	COc1ccc(Cl)cc1NS(=O)(=O)c1ccc2c(c1)CCN2C(=O)C1CCC1	0.99	-0.25
20	CCc1cccc(NC(=O)CCc2c(C)nc3cc(-c4cc(OC)cc(OC)c4)nn3c2C)c1	0.94	-1.4
21	CCCCNC(=O)CCN1N=C(c2ccc(OC)cc2)CCC1=O	1.1	0.86
22	Cc1ccn2c(Nc3ccccc3)c(-c3c[nH]c4ccccc34)nc2c1	0.64	-14
23	CCN(CC)S(=O)(=O)c1ccc2c(c1)N(CC(=O)NCc1cccnc1)C(=O)CS2	1	1.8
24	COc1cc(C(=O)NCc2nnc(SCC(=O)Nc3cccc(F)c3)o2)cc(OC)c1OC	0.9	-1.5
25	CCOC(=O)c1cccc(NC(=O)c2cccc3c2C(=O)N(C2CCCCC2)C3)c1	1	0.12
26	CC(C)c1ccc(C(=O)Nc2ccc(-c3nc4ncccc4o3)cc2)cc1	1.1	0.41
27	Cc1cccc(-c2nc3cc(NC(=O)c4ccccc4)ccc3o2)c1	1.1	1.2
28	CCCn1c(C(O)c2ccc(OCc3ccccc3)cc2)nc2ccccc21 (configuration not stated)	0.88	-2.7
29	COc1ccc(CNC(=O)C2CCCN2C)cc1OC (configuration not stated)	0.99	-0.38
30	CCCOc1ccc(C(=O)Nc2cc(-c3nc4ncccc4o3)ccc2C)cc1	0.97	-0.26
31	Cc1ccc(-c2nc(N3CCC4(CC3)OCCO4)c3ccccc3n2)cc1	1	0.63
32	CC(C)c1cc(C(=O)Nc2cnn(Cc3ccc(Cl)cc3Cl)c2)no1	0.98	-0.21
33	Cc1ccc(CNC(=O)c2cc(=O)[nH]c3ccc(S(=O)(=O)N4CCCC(C)C4)cc23)cc1 (configuration not stated)	0.87	-1.8
34	NC(=O)CS(=O)(=O)c1nc2ccccc2n1Cc1ccccc1F	1.2	2.6
35	Cc1ccccc1-n1nc2c(c1NC(=O)c1ccc(S(=O)(=O)N3CCOCC3)cc1)CSC2	1	0.22
36	CC1CCC(NC(=O)CN2C(=O)CCSc3ccccc32)CC1 (configuration not stated)	1	1.7
37	COc1ccc(-c2noc(-c3cccc(C)c3)n2)cc1OC	1.1	4.4
38	Cc1cccc(-c2nc(C(=O)NCc3ccc(Cl)cc3)c(C)o2)c1	1	-0.034
39	CCOc1ccc(N2C(=O)c3cccnc3C2Nc2ccc(C)cc2)cc1 (configuration not stated)	0.82	-4.8
40	CCCS(=O)(=O)N1CCCC(C(=O)NCCN(CC)CC)C1 (configuration not stated)	1	0.81
41	Cc1ccc(-c2nc(S(=O)(=O)c3ccc(Cl)cc3)c(N3CCCCC3)o2)cc1	0.68	-12
42	Cc1csc(NC(=O)C2(NS(=O)(=O)c3cccc4cccnc34)CCCCC2)n1	0.97	-1.2
43	Clc1cccc(-n2nnnc2C2(N3CCCCC3)CCCC2)c1	1.1	2.4
44	O=C1CCCC2=C1C(c1cccnc1)CC(=O)N2c1ccc(F)cc1 (configuration not stated)	1	0.42
45	Cc1nn(Cc2ccc(F)cc2)c(C)c1NC(=O)c1cc(-c2cccc(Cl)c2)on1	1.1	1.7
46	Cc1cccc(NC(=O)CSc2nnc(CNC(=O)c3c(F)cccc3Cl)o2)c1	1.1	1.3
47	COc1cccc2cc(-c3nnc(-c4cccc(Br)c4)o3)c(=O)oc12	0.96	-0.85
48	Cc1ccc2cc(CCNC(=O)c3ccccc3Cl)c(=O)[nH]c2c1	1	0.39
49	COc1ccc(-c2cn(-c3ccc(C)c(Cl)c3)c(=O)[nH]2)cc1OC	1	0.0032
50	O=C(CSc1nnnn1-c1ccc(F)cc1F)N1CCOCC1	1.1	1.1

Carrying on.
#	Molecule	CBX7 inh	CBX7 inh z-score
51	O=C(CSc1nccn1-c1ccc(Cl)cc1)Nc1ccc2c(c1)OCCO2	0.56	-1.5
52	CCC(C)NC(=O)CN1CCN(Cc2ccccc2Cl)C1=O (configuration not stated)	0.97	-0.47
53	O=C(C1CCC1)N1CCc2cc(S(=O)(=O)Nc3cccc(F)c3)ccc21	0.93	-2.4
54	Cc1cc(C)cc(N2CC(c3nc4ccccc4n3C)CC2=O)c1 (configuration not stated)	0.96	-0.19
55	CCOC(=O)CNC(=O)c1nn(-c2ccc(OCC)cc2)c(=O)c2ccccc12	0.95	-0.62
56	COc1ccccc1N1CCN(C(=O)c2onc(C)c2Cl)CC1	1.1	1.9
57	Cc1ccccc1Cn1c(=O)c(CCC(=O)NCCC(C)C)nc2ccccc21	0.97	-0.37
58	O=C(COc1ccccc1)Nc1ccn(Cc2ccccc2Cl)n1	0.91	-1.7
59	CC(=O)Nc1cc(-c2ccc(Cl)cc2)nn1Cc1ccccc1	0.98	-0.35
60	CCOC(=O)c1cnc2c(OC)cccc2c1NCc1ccc(F)cc1	1	0.053
61	COc1ccccc1-c1c(C)nn2c(N3CCOCC3)cc(C)nc12	1.2	1.4
62	CCOc1ccc(C(=O)Nc2ccc(N3CCOCC3)cc2)cc1Cl	1.1	1.1
63	Fc1ccc(N2CCN(c3nc(-c4ccccc4F)nc4ccccc34)CC2)cc1	0.89	-3
64	Cc1c(C(=O)NCCN(C)c2ccccc2F)sc2ncnc(N3CCOCC3)c12	0.99	-0.28
65	CCC(=O)N1CCc2cc(S(=O)(=O)NCCCN3CCN(c4cccc(Cl)c4)CC3)ccc21	1.2	3.3
66	CC(NC(=O)c1ccc2c(c1)OCO2)C(c1cccs1)N1CCOCC1 (configuration not stated)	1	0.43
67	CCOc1ccc(CCNC(=O)Cn2ncc3ccsc3c2=O)cc1	0.95	-0.63
68	COc1cc(NC(=O)CCc2c(C)nc3cc(-c4ccc(OC)cc4OC)nn3c2C)cc(OC)c1	1	0.47
69	CC(C)(C)c1ccc(-c2nc(NC(=O)CSc3nnc4ccccn34)ns2)cc1	0.99	-0.18
70	Cn1c(CC(O)c2cccc3ccccc23)nc2ccccc21 (configuration not stated)	1.1	1.7
71	Cn1c(C(=O)N2CCCC(C(=O)NC3CC3)C2)cc2sccc21 (configuration not stated)	0.95	-1.4
72	COc1ccccc1CNC(=O)c1nn(-c2ccccc2OC)c(=O)c2ccccc12	0.94	-1.7
73	O=C(CC1Oc2ccc(Cl)cc2NC1=O)NC1CCCC1 (configuration not stated)	1	0.48
74	CCOCCCNc1c(-c2ccccc2)nc2cnccn12	1.1	0.72
75	NC(=O)C1(N2CCCCC2)CCN(c2nc(-c3ccc(F)cc3)cs2)CC1	1	0.095

Individual results from the results shown:
#56 @ CBX7 inh z-score: 1.9
#69 @ CBX7 inh z-score: -0.18
#70 @ CBX7 inh z-score: 1.7
#61 @ CBX7 inh: 1.2

Down the list, as entered above.
CBX7 inh z-score, compounds 57–66 → -0.37, -1.7, -0.35, 0.053, 1.4, 1.1, -3, -0.28, 3.3, 0.43

A second format for some results above:
(58) O=C(COc1ccccc1)Nc1ccn(Cc2ccccc2Cl)n1
(59) CC(=O)Nc1cc(-c2ccc(Cl)cc2)nn1Cc1ccccc1

screen / no.,58,59
CBX7 inh,0.91,0.98
CBX7 inh z-score,-1.7,-0.35

(continued)
#	Molecule	CBX7 inh	CBX7 inh z-score
76	COc1ccc(-c2cc(C(=O)O)c3ccccc3n2)c(OC)c1	0.96	-0.57
77	Cc1cccc(NC(=O)CS(=O)(=O)c2nc(-c3ccc4c(c3)OCO4)cn2-c2cccc(Cl)c2)c1	0.88	-5.1
78	CCC1CCCCN1C(=O)c1cnn2c(C(F)F)cc(-c3ccc(C)cc3)nc12 (configuration not stated)	1.2	6.3
79	COC(=O)c1ccc2c(c1)N(Cc1ccc(F)cc1)C(=O)c1ccccc1S2	0.94	-1.8
80	CC1=Nc2cc(C(=O)NC3CCCC3)ccc2Sc2ccc(Br)cc21	0.97	-1.3
81	COCCCNc1nc(-c2ccc(Cl)cc2)nc2ccccc12	1.1	2.7
82	CCN(CC)CCCNC(=O)c1sc2ncn(CC(=O)N3CCC(C)CC3)c(=O)c2c1C	1.4	3.5
83	COc1ccc(-c2csc(Nc3cccc(C)n3)n2)cc1C	0.93	-0.89
84	CC(Nc1nc(-c2ccccc2F)nc2ccccc12)c1ccccc1 (configuration not stated)	0.92	-1.9
85	CCOc1ccc(NC(=O)Nc2ccc(Cc3ccncc3)cc2)cc1	0.78	-2.4
86	CCN(C(=O)Cc1c(C(=O)O)n(CC)c2ccccc12)c1cccc(C)c1	1.1	1.2
87	Cc1ccc(C)c(N2CCN(CCCNC(=O)Nc3ccc(Br)cc3)CC2)c1	1.3	5.7
88	Cc1ccc(CNC(=O)C2CCN(C(=O)N(C)C)CC2)cc1	1	0.19
89	COc1ccc(CN2C(=O)CCC2(C)C(=O)NC2CCCCCC2)cc1 (configuration not stated)	1.2	3.1
90	CCC1=Nc2cc(C(=O)NCCc3ccc(C)cc3)ccc2Sc2ccc(Cl)cc21	0.85	-2.1
91	Cc1cc(C)cc(-c2nc(-c3ccc(Br)cc3)no2)c1	1.4	5.8
92	Cc1cccc(C(=O)Nc2sc3c(c2C(=O)N2CCCCC2)CCCCC3)c1	0.99	-0.14
93	COc1cccc(-n2nc(C(=O)Nc3cc(C)ccc3OC)c3ccccc3c2=O)c1	0.97	-0.77
94	CCOc1ccc2nc(N3CCCC(C(=O)NCCCN(C)Cc4ccccc4)C3)sc2c1 (configuration not stated)	0.79	-5.8
95	CN(C(=O)Cn1nc(Cc2ccncc2)c2ccccc2c1=O)c1ccccc1	1	0.035
96	CC(C)CCNC(=O)C1CCCN(c2nc3ccccc3o2)C1 (configuration not stated)	0.96	-1.2
97	CC(NS(=O)(=O)c1ccc(Cl)cc1)C(c1cccs1)N1CCN(c2ccc(F)cc2)CC1 (configuration not stated)	0.78	-5.4
98	Cc1cc(=O)n2[nH]c(C)c(-c3ccc(F)cc3)c2n1	0.94	-1.3
99	Cc1cccc(C(=O)Nc2c3c(nn2-c2cccc(Cl)c2)CS(=O)(=O)C3)c1	0.87	-0.83
100	Cc1ccc(CNC(=O)c2ccc3c(c2)N(Cc2ccc(Cl)cc2)C(=O)c2ccccc2S3)cc1	0.94	-0.71

In the list so far, 4 have bromine.
#	Molecule	CBX7 inh	CBX7 inh z-score
47	COc1cccc2cc(-c3nnc(-c4cccc(Br)c4)o3)c(=O)oc12	0.96	-0.85
80	CC1=Nc2cc(C(=O)NC3CCCC3)ccc2Sc2ccc(Br)cc21	0.97	-1.3
87	Cc1ccc(C)c(N2CCN(CCCNC(=O)Nc3ccc(Br)cc3)CC2)c1	1.3	5.7
91	Cc1cc(C)cc(-c2nc(-c3ccc(Br)cc3)no2)c1	1.4	5.8

Following part:
#	Molecule	CBX7 inh	CBX7 inh z-score
101	Cc1cc(N2CCC(C(=O)NC3CCCC3)CC2)n2nc(C)c(-c3ccc(Cl)cc3)c2n1	1	1.8
102	CCC1Oc2ccccc2N(CC(=O)NCCCN2CCCCC2CC)C1=O (configuration not stated)	1.1	3.7
103	Cc1ccc(-c2nc(N3CCCC(C)C3)c3ccccc3n2)cc1 (configuration not stated)	1.3	0.33
104	COc1cc(NC(=O)Cn2cc(S(=O)(=O)c3ccccc3)c(=O)c3cc(F)ccc32)cc(OC)c1	0.89	-3.5
105	Cc1[nH]c2ccc(C(=O)OCCN(C)C)cc2c1C	0.93	-1.8
106	N#Cc1nc(-c2ccc(F)cc2)oc1NCC1CCCO1 (configuration not stated)	1.1	1.3
107	COc1cc2ccccc2cc1C(=O)Nc1ccc2oc(-c3ccc(F)cc3)nc2c1	1	2
108	COc1ccc(-n2nc(C(=O)Nc3ccc(C)c(F)c3)c3ccccc3c2=O)cc1	1	0.08
109	CCC1Oc2ccccc2N(CC(=O)N(C)CCC#N)C1=O (configuration not stated)	0.93	-0.81
110	Nc1nonc1-c1nc2ccccc2n1Cc1ccc(F)cc1Cl	1.1	0.75
111	COc1ccccc1CNC(=O)CN(C)S(=O)(=O)c1cccc2cccnc12	0.94	-1.3
112	O=C(Nc1ccc(Br)cn1)c1cc2ncc(Br)cn2n1	1.1	0.66
